Mtb H37Rv: Mycobacterium tuberculosis H37Rv growth inhibition, cell based, confirmatory dose response (AID 1949) | most inactive calls were filed without a number and no value below 0 was filed | inhibition, % at 10 µg/mL, or IC50 in µg/mL where a hit was titrated | hit rate 1.6% among 100,000;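 active = confirmed in a dose series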;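 note: bacteria grown 7 days with compound before Alamar blue readout; 0% = untreated bacteria and 100% = reference antibiotic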
* marks the source's active call; other numbers are inactive results; i = inactive. A portion of the library (hit frequency here may not be typical).

SMILES	Mtb H37Rv
Cc1ccc(N2C(=O)c3oc4ccc(F)cc4c(=O)c3C2c2ccc(Br)cc2)nc1 (stereo unspecified)	i
CCc1nnc2sc(-c3ccc(C)c(NC(=S)NC(=O)c4ccccc4C)c3)nn12	i
O=C1CC(NCc2ccc(Cl)cc2)C(=O)N1c1ccccc1 (stereo unspecified)	i
c1ccc2c(OCCNC3CCCC3)cccc2c1	7%
CCCCNC(=O)c1ccccc1NC(=O)c1ccc(Cl)cc1	i
O=C(C1CCCC1)N(Cc1ccccc1)Cc1ccccc1	i
COc1ccc([N+](=O)[O-])cc1NC(=O)c1cccc(C)c1	i
CC(=O)c1cccc(NC(=O)C(C)NS(=O)(=O)c2ccc(C)cc2)c1 (stereo unspecified)	i
CCCc1cc(=O)[nH]c(/N=C(\N)Nc2cc(Cl)ccc2OC)n1	i
COc1ccc(OC)c(S(=O)(=O)N2CCCc3ccccc32)c1	i
CCN(CC)C(=O)c1cccc(OCc2ccccc2)c1	2%
O=C(CSc1nc2ccccc2c(=O)[nH]1)Nc1cccc(C(F)(F)F)c1	i
O=C(CSc1ccc(Cl)cc1)Nc1ccccc1C(F)(F)F	i
CN1CCN(c2nnc(C(F)(F)F)s2)CC1	i
COC(=O)c1sc(N2C(=O)C(=O)/C(=C(/O)c3cccc(OC)c3)C2c2cccc(OC)c2OC)nc1C (stereo unspecified)	i
Cc1ccc(NC(=O)CSc2nc3ccc(NC(=O)c4ccc([N+](=O)[O-])cc4)cc3s2)c(C)c1	i
CCCOc1ccccc1CN1C(=O)C(=O)c2cc(C)ccc21	15%
Cn1c(COc2ccccc2)nnc1SCC(=O)Nc1cccc2ccccc12	i
CN1CCN(NC(=O)Nc2ccccc2C(F)(F)F)CC1	i
CCOC(=O)C1CCN(C(=S)NCCc2ccccc2)CC1	i

Exported as a markdown table: entries from further up.
| Molecule | Mtb H37Rv |
| --- | --- |
| COc1ccc(OC)c(S(=O)(=O)N2CCCc3ccccc32)c1 | i |
| CCOC(=O)C1CCN(C(=S)NCCc2ccccc2)CC1 | i |
| CCCc1cc(=O)[nH]c(/N=C(\N)Nc2cc(Cl)ccc2OC)n1 | i |
| Cc1ccc(N2C(=O)c3oc4ccc(F)cc4c(=O)c3C2c2ccc(Br)cc2)nc1 (stereo unspecified) | i |

New compounds follow
SMILES	Mtb H37Rv
CC(C)(C)NC(=O)CSc1nnn(-c2ccccc2)n1	1%
COc1cc2c(cc1NC(=O)C1CCCO1)oc1ccccc12 (stereo unspecified)	i
Cc1cccc(OCC(=O)Nc2sc3c(c2C#N)CCCC3)c1	i
CC(C)CC(=O)Nc1cccc(-c2cn3ccsc3n2)c1	i
O=C1C2C(C(=O)C3C1C1C=CC3C13CC3)C1C=CC2C12CC2 (stereo unspecified)	2%
CCOC(=O)N1CCN(C(=O)COc2cccc3ccccc23)CC1	1%
NC(=O)c1cn(-c2ccccc2)nc1-c1ccc(F)cc1	i
COC(=O)c1ccc(CSc2nnnn2Cc2ccccc2)cc1	i
O=C(O)c1ccc(NC(=S)NC(=O)c2ccc(-c3ccccc3)cc2)cc1	1.6µg/mL*
CC(=O)Oc1ccc2cc(-c3ccc(F)cc3)c(=O)oc2c1	i
CNC(=S)N1CCN(c2ccc(Cl)c(Cl)c2)CC1	i
CS(=O)(=O)N1CCC(C(=O)Nc2ccc(F)c(Cl)c2)CC1	i
CCn1c(Cc2ccc(OC)cc2)nnc1SCC(=O)Nc1nc(-c2ccc(Br)cc2)cs1	i
COc1ccc(OC(=O)c2sc3ccccc3c2Cl)cc1	i
CCc1ccc(OCCCC(=O)Nc2cc(C)ccc2OC)cc1	i
N#CCCCN1C(=O)C(O)(CC(=O)c2ccccn2)c2ccccc21 (stereo unspecified)	i
CC(Sc1n[nH]c(=O)n1-c1ccccc1)C(=O)NC(c1ccccc1)c1ccccc1 (stereo unspecified)	5%
CCCNC(=O)c1cc(-c2ccc(OC)cc2)nc2ccccc12	i
S=C(Nc1ccc(Br)cc1)N1CCN(c2ccccn2)CC1	i
CN(C)CCCN1C(=O)C(O)=C(C(=O)c2cccs2)C1c1ccc(OCc2ccccc2)cc1 (stereo unspecified)	i
CCOc1ccc(C)cc1S(=O)(=O)NC1CCCCC1	i
Cc1onc(-c2c(Cl)cccc2Cl)c1C(=O)Nc1sc2c(c1C(N)=O)CCC(C)C2 (stereo unspecified)	i
CCOC(=O)c1sc2ncn(CCc3ccccc3)c(=O)c2c1C	i
Cc1ccc(C(=O)Nc2ccccc2C(=O)NCc2ccccc2)cc1	i
O=C(NCc1cccnc1)c1cccs1	i
Cc1nc(SCC(=O)c2ccc(F)cc2)c2c3c(sc2n1)CCC3	i
Cc1ccc(NC2CC(=O)N(c3ccc(Cl)cc3C)C2=O)cc1C (stereo unspecified)	i
CCOCCCNC(=O)CSc1ccccc1	i
CS(=O)(=O)N1CCN(c2ccc(NC(=O)Cc3ccc(Cl)cc3)cc2)CC1	i
COc1cccc(C(=O)O/N=C(\N)c2ccc(Cl)cc2)c1OC	9%
N#CC1=C(N)Oc2n[nH]c(-c3ccc([N+](=O)[O-])cc3)c2C1c1ccncc1 (stereo unspecified)	0%
CCC1CCc2c(sc(NC(=O)c3ccc4c(c3)OCO4)c2C(N)=O)C1 (stereo unspecified)	i
COc1ccc(CCNCC(O)COc2ccc(Cl)cc2)cc1OC (stereo unspecified)	2%
N#Cc1cn(Cc2ccccc2)c2ccccc12	i
O=C(NCc1ccccc1)C(=S)N1CCOCC1	i
COC(=O)c1cc(Cl)c(NC(=O)COc2ccc(C)cc2Br)cc1OC	i
CCC(=O)Oc1ccc(C(=O)Nc2cc(-c3nc4ccccc4[nH]3)ccc2C)cc1	45%
COc1c(C)cccc1C(=O)NC(=S)Nc1sc2c(c1C(N)=O)CCC2	i
S=c1[nH]nc(COc2ccc3c(c2)OCO3)n1-c1ccccc1	i
COc1cccc(C(C)NC(=S)Nc2ccc(C(C)=O)cc2)c1 (stereo unspecified)	0%

7 of the compounds above, as comma-separated lines.
Compound,Mtb H37Rv
Cc1ccc(NC2CC(=O)N(c3ccc(Cl)cc3C)C2=O)cc1C (stereo unspecified),i
CCOCCCNC(=O)CSc1ccccc1,i
CS(=O)(=O)N1CCN(c2ccc(NC(=O)Cc3ccc(Cl)cc3)cc2)CC1,i
COc1cccc(C(=O)O/N=C(\N)c2ccc(Cl)cc2)c1OC,9%
N#CC1=C(N)Oc2n[nH]c(-c3ccc([N+](=O)[O-])cc3)c2C1c1ccncc1 (stereo unspecified),0%
CCC1CCc2c(sc(NC(=O)c3ccc4c(c3)OCO4)c2C(N)=O)C1 (stereo unspecified),i
COc1ccc(CCNCC(O)COc2ccc(Cl)cc2)cc1OC (stereo unspecified),2%

Additional results.
SMILES	Mtb H37Rv
C#CCOc1c(Cl)cc(C=O)cc1Br	i
O=C(COc1ccc(NS(=O)(=O)c2ccc3c(c2)Cc2ccccc2-3)cc1)N1CCOCC1	i
CCCOc1ccc(-c2csc3ncn(CC(=O)Nc4ccccc4OCC)c(=O)c23)cc1	i
CC(NC(=O)CC(NCc1ccccc1)C(=O)O)c1ccccc1 (stereo unspecified)	i
COc1cccc(NC(=O)CCc2ccc(S(=O)(=O)NCC(C)C)cc2)c1	i
CC(=O)Nc1ccc(S(=O)(=O)NCCSc2ccc(C)cc2)cc1	i
O=C(CCN1C(=O)c2cccc3cccc(c23)C1=O)N1CCN(Cc2ccccc2)CC1	i
C=CCN(CC=C)C(=S)NC(=O)c1ccc(OC)cc1	i
COc1ccc(C2c3cc(OC)c(OC)cc3CCN2C(=O)c2ccco2)cc1OC (stereo unspecified)	i
CCN(CC)C(=O)COc1c(C)cc(Br)cc1C	i
CCC(C)NS(=O)(=O)c1ccc(OCC(=O)Nc2cc(C(F)(F)F)ccc2Cl)cc1 (stereo unspecified)	3%
Cc1cc(C)cc(C(=O)Nc2ccc(Cl)cn2)c1	2%
Cc1ccc(S(=O)(=O)Nc2cc(-c3nn(C)c(=O)c4ccccc34)ccc2N2CCCCC2)cc1	6%
CCN(CC)c1ccc(NC(=S)Nc2cccc(Cl)c2C)cc1	i
O=C(CSc1n[nH]c(-c2ccccc2Cl)n1)Nc1ccccc1F	i
COc1ccc(OC)c(S(=O)(=O)N2CCC(C(=O)N3CCN(C)CC3)CC2)c1	i
COc1nc(NC23CC4CC(CC(C4)C2)C3)nc(OC)n1	i
O=C(Nc1nc2ccc(Cl)cc2s1)c1cccc(Cl)c1	i
C=CCn1c(SCC(=O)Nc2ccc(OCC)cc2)nnc1C12CC3CC(CC(C3)C1)C2	3%
C=C(C)Cn1c(SCC(=O)N2CCCc3ccccc32)nc2sc3c(c2c1=O)CCCC3	15%
COc1ccccc1NC(=O)CSc1nnc(NC(=O)c2ccccc2Br)s1	i
CC1=C(C(=O)Nc2ccccc2)C(c2ccncc2)n2ncnc2N1 (stereo unspecified)	i
CCNC(=S)Nc1ccccc1-c1ccccc1	i
CC(C(=O)Nc1ccccc1Oc1ccccc1)c1ccccc1 (stereo unspecified)	1%
Cc1cc(Cl)ccc1NC(=O)CSc1nnc(CNC(=O)c2cccc([N+](=O)[O-])c2)n1C	i
Cc1ccc(-c2ccc(S(=O)(=O)Nc3cccnc3)cc2)cc1	i
O=C(O)C1CC=CCC1C(=O)Nc1ccc(S(=O)(=O)Nc2cnc3ccccc3n2)cc1 (stereo unspecified)	i
CCOc1cccc(NC(=O)C2CC(=O)N(C)C2)c1 (stereo unspecified)	i
Clc1ccc(Br)cc1-c1nc(-c2ccccn2)no1	3%
CC(C)c1ccc(OCC(=O)Nc2cc(Cl)ccc2O)cc1	2%
Cc1cc(=O)oc2c1c(C)nn2-c1nn[nH]n1	0%
CC(NC(=O)c1cc2c(s1)CCCC2)C(C)(C)C (stereo unspecified)	43%
O=C(COc1ccc(Cl)cc1)Nc1ncc(Cc2ccc(Cl)cc2)s1	i
Nc1ncnc(Nc2ccc(F)c(F)c2)c1[N+](=O)[O-]	i
O=C(CN1C(=O)c2ccccc2S1(=O)=O)Nc1ccccc1Cl	i
Cc1ccc(C(=O)COC(=O)C(C(C)C)N2C(=O)C3C4C=CC(C5CC45)C3C2=O)cc1C (stereo unspecified)	i
Cn1nnc(NC(=O)COc2ccc(Cl)cc2Cl)n1	i
CC(=O)c1cccc(NC(=O)c2ccc(C)c(I)c2)c1	7%
CCc1ccc(NC(=O)C(=O)NCCN2CCN(Cc3ccccc3F)CC2)cc1	i
CCOc1cc(CNC23CC4CC(CC(C4)C2)C3)ccc1OCc1cccs1	0.82µg/mL*
CCOc1ccc(OCC)c2sc(C)nc12	i
COc1ccc(OC2C(=O)N(Cc3ccc4c(c3)OCO4)C2c2cccs2)cc1 (stereo unspecified)	i
COc1ccc(C23CC4CC(CC(C4)C2)C3)cc1C(=O)NCCN(C)C	11µg/mL*
CCOC(=O)c1ccccc1NC(=S)NN1CCOCC1	i
O=C(Nc1ccc(Cl)cc1)c1cccc(S(=O)(=O)NC2CCCCC2)c1	i
COc1cccc(OCCN2CCNCC2)c1	i
Cc1c(C)n(C(=O)CSc2nnc3sc4ccccc4n23)c2ccccc12	i
CC(=O)Nc1ccc(NC(=O)CSc2nc(C)cc(C)n2)cc1	i
Cn1nnc(NC(=O)CSc2nnnn2-c2ccc(C(=O)O)cc2)n1	i
O=C1OCc2cc(NS(=O)(=O)c3cccs3)ccc21	i
COc1cc(C=O)ccc1OCc1cccc(Br)c1	i
c1ccc(CCN(Cc2ccccc2)C2CCN(C3CCCC3)CC2)cc1	3%
CCCCOc1ccc(C(=O)Nc2cccc(C)c2)cc1	i
COc1cc2c(cc1OC)C(c1ccc(F)cc1)CC(=O)N2 (stereo unspecified)	i
CC(=O)c1c(C)n(CCCOC(C)C)c2ccc(O)cc12	i
NC(=O)c1c(NC(=O)c2cnn3c(C(F)F)cc(-c4ccccc4)nc23)sc2c1CCCC2	i
Cn1c(SCC(=O)Nc2nc3ccccc3s2)nnc1-c1ccccc1	i
COc1cc(COc2ccc3c(-c4ccccc4)cc(=O)oc3c2)cc(OC)c1OC	i
O=C(Nc1nnc(C2CCCO2)s1)c1ccc(Br)cc1 (stereo unspecified)	i
O=C(Nc1ccc(-c2nc3ccc(Br)cc3c(=O)o2)cc1)c1ccco1	49%

Remaining list, next part.
SMILES	Mtb H37Rv
COc1ccc(Cl)cc1NC(=O)c1ccc(N(C)S(C)(=O)=O)cc1	i
Cc1ccc(C(=O)NC(=S)Nc2ccc(-c3nc4ccc(C)cc4o3)c(O)c2)c(Cl)c1	i
O=S(=O)(Nc1ccc(Br)c(Cl)c1)c1cc(Cl)ccc1Cl	i
C=CCSc1nc2c(cc1C#N)CCC2	i
CCOC(=O)c1cnc(SCc2ccc(Cl)cc2)[nH]c1=O	i
COc1ccc(N2CCN(C(=O)COc3ccc(Br)cc3C)CC2)cc1	33%
CC(C)COCc1ccc(O)c2ncccc12	i
COc1ccccc1-n1c(-c2ccccc2F)nc2ccccc2c1=O	i
Cc1cccc(OCC(=O)Nc2ccc(S(=O)(=O)N3CCCCC3C)cc2)c1 (stereo unspecified)	1%
Cc1cc(Br)cc2c1N(CCCOc1ccccc1)C(=O)C2=O	9.2µg/mL*
COC(=O)NC12CC3CC(CC(C3)C1)C2	3%
O=S(=O)(c1ccc(Br)cc1)N1CCN(c2ccc(Cl)c(Cl)c2)CC1	i
CCOc1cccc(C(=O)NC(=S)Nc2ccc(I)c(C)n2)c1	i
CCC(C)c1ccc(NC(=O)c2cnn3c(C(F)F)cc(C)nc23)cc1 (stereo unspecified)	3%
Cc1ccc(NS(=O)(=O)c2cc(C(=O)O)ccc2Cl)cc1C	i

Given comma-delimited: part of the list above.
SMILES,Mtb H37Rv
C=CCSc1nc2c(cc1C#N)CCC2,i
CC(C)COCc1ccc(O)c2ncccc12,i
COC(=O)NC12CC3CC(CC(C3)C1)C2,3%
COc1ccc(N2CCN(C(=O)COc3ccc(Br)cc3C)CC2)cc1,33%
COc1ccccc1-n1c(-c2ccccc2F)nc2ccccc2c1=O,i
